# Screening data from PubChem BioAssay.
# PINK1 modulator – changes PINK1 expression; PINK1 immunofluorescence, high-content cytometry, 24 h; 410,000 tested, 0.2% active; Potency, µM (series often up to 76.6 µM), for inactives: at the highest dose activation (PINK1 increase), most hits filed as activators; active = well fitted activation curve with a large enough effect; inconclusive = small, poorly fitted or top-dose-only effect; inactive = flat fitted curve, though single readings scatter; cell line not stated here;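 further: potency means the concentration at half of the fitted maximal effect; % of control where 0% means no effect; nearly all actives have a fitted effect of over 65% in size; a mitochondrial uncoupler was the plate control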
#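 Compound titrations (5 concentrations, 24 h) on a stable cell line; DMSO and CCCP controls. Endpoint: fixed-cell PINK1 immunofluorescence with mitochondrial, cell and nuclear markers, scanned by microplate cytometer.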
# CtBP-E1A blk – CtBP/E1A binding inhibition | 340,000 tested, 0.49% active | AlphaScreen GST-E1A/His-CtBP binding, 1536-well; hits give low values; control for the full effect not named in the record | activity change, % (no concentration beside the values) | AID 651724; in the data active means activity change below about -65%; inconclusive means about -30% to -65%; inactive means above about -30%; further: on the % scale 0 is the no-effect control and ±100 the full control effect; compound concentration not given in the record
#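 Homogeneous bead-based format: GST-tagged E1A captured on glutathione donor beads, His-tagged CtBP on nickel acceptor beads; compounds precede bead addition by 2 h at 37 °C.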
# Six1-Eya2 inh – inhibitors of human Six1/Eya2 interaction; Q15475+O00167; activity change, % (test concentration not listed); 360,000 tested, 0.56% active; AID 651725; AlphaScreen GST-Six1/His-Eya2 binding, biochemical; hits give low values; control for the full effect not named in the record; in the data active = activity change below about -65%; inconclusive = about -30% to -65%; inactive = above about -30%; further: on the % scale 0 is the no-effect control and ±100 the full control effect; compound concentration not given in the record
# Target sequence (O00167 whole entry, looked up): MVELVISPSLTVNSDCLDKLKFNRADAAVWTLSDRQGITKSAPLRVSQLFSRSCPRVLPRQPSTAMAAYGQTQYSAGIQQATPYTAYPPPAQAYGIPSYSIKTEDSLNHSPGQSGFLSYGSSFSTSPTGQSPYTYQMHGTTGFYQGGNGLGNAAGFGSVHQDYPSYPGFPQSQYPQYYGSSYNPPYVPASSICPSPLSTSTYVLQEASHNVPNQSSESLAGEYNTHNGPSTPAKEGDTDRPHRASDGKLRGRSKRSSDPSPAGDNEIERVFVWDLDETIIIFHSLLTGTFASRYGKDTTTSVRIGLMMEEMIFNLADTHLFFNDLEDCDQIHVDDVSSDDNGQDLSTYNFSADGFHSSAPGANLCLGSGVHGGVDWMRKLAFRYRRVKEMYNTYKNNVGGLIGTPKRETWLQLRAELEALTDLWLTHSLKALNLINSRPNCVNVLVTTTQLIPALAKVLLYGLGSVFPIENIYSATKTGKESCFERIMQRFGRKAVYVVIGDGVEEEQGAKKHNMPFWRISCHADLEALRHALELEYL
# Target sequence (Q15475 whole entry, looked up): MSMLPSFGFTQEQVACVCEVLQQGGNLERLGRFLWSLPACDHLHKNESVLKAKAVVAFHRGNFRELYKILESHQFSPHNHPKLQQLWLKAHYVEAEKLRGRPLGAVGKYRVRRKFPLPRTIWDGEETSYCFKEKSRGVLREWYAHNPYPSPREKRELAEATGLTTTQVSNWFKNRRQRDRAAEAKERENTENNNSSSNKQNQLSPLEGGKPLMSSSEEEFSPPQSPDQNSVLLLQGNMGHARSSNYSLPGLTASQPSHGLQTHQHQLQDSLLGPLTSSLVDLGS
#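 Homogeneous AlphaScreen proximity assay pairing GST-Six1 with His-tagged Eya2 (added as 5X mix: 250 nM and 500 nM) in 50 mM Tris pH 8.0, 300 mM NaCl, 1 mM TCEP. Glutathione donor and nickel acceptor beads; 1 h, 37 °C, dark.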
# D2 ag – human D2 receptor agonism in beta-arrestin assay; AID 624465; 360,000 tested, 0.084% active; activation, % (concentration not given with the values); DiscoveRx PathHunter D2 beta-arrestin, luminescence, 90 min; 100% = 57 uM dopamine signal; in the data active = activation above about 40%; inconclusive = about 15% to 40%; inactive = below about 15%; further: compound concentration not given in the record; the text of the record calls up to 30% inactive
#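 Agonist mode: compounds alone added to overnight-plated D2 PathHunter cells for 90 min at 37 C, with 57 uM final dopamine (EC100) defining full response. Beta-arrestin recruitment detected by chemiluminescent reagent, read after 1 h at ambient temperature.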
# TRPML1 ag – activates the human TRPML1 channel. TRPML1-expressing cells, Ca2+ dye fluorescence, FDSS; host cell line not named in the record; reference of the full effect not given here. AID 624414. Q9GZU1. 410,000 tested, 0.12% active. activation, % (concentration not given with the values); in the data active = activation above about 50%; inconclusive = about 30% to 50%; inactive = below about 30%; further: 0% is about no effect; the text of the record puts the active cut at 80%
#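 Tetracycline-induced TRPML1-DL cells are seeded and incubated overnight before loading with a no-wash Ca2+ dye and quencher. Agonist activity is taken from the 110 s fluorescence read following compound pin-transfer on an FDSS, before EC80 54-4 challenge.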
# D2 potentiator – human D2 receptor positive allosteric modulation. potentiation, % (test concentration not listed). DiscoveRx D2 beta-arrestin cells, luminescence, 90 min; 100% = 57 uM dopamine signal. P14416. AID 624464. 360,000 tested, 0.23% active; active = potentiation of 50% or more; inconclusive = 30% to 50%; inactive = 30% or less;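 further: compound concentration not given in the record; tested on top of an EC20 dose of dopamine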
#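 PathHunter beta-arrestin assay in DiscoveRx D2 cells. Compounds were added with an EC20 of dopamine (50 nM final) for 90 min at 37 deg C. Luminescence was read 1 h after detection reagent, with 57 uM dopamine as the EC100 control.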
# Starred values were filed as active, the others as inactive; ? = inconclusive; . = no result given; & = joins results of further samples; [ ] = dose if it differs, or a comment. Not a hit list; 1.3% or so of the library scored in one or more.
cpd	SMILES	PINK1 modulator	CtBP-E1A blk	Six1-Eya2 inh	D2 ag	TRPML1 ag	D2 potentiator
1	CCc1ccc(CN2CCCC(CNC(=O)c3cccc(OC)c3OC)C2)cc1 (configuration not stated)	-2.0%	0.3	-1.5	1.3	0.2	-16.2
2	O=C(NC(=S)Nc1nc2c(s1)CCCC2)c1ccccc1	5.6%	-8.6	4.1	-1.5	0.2	-17.5
3	CCc1ccccc1NC(=O)CNC(=O)c1ccc(-n2cncn2)c([N+](=O)[O-])c1	0.4%	7.1	4.4	4.9	-0.4	-9.5
4	CC1(C(=O)NS(=O)(=O)c2ccc(Cl)s2)CCN1C(=O)CCc1ccccc1 (configuration not stated)	0.8%	11.2	0.6	3.1	-0.6	-1.0
5	Cc1nn(C)c(C(=O)N2CCc3ccccc32)c1Cl	2.5%	5.2	3.8	-1.4	0.6	6.6
6	c1ccc(Oc2cccc(OCCCn3cncn3)c2)cc1	-1.4%	-2.2	3.9	0.8	5.8	15.5
7	Cn1c(=O)c2c(-c3cccc(Br)c3)c(C#N)c(N)nc2n(C)c1=O	1.6%	8.3	3.9	1.0	1.5	-1.1
8	O=C(CNC(=O)c1cccs1)N=Nc1c(O)[nH]c2ccc(Br)cc12	1.2%	-1.9	-5.8	-4.2	0.7	-14.9
9	CSCCC(NC(=O)c1ccco1)C(=O)NCCc1ccc(Cl)cc1 (configuration not stated)	-1.9%	5.4	2.6	-4.2	0.0	-19.7
10	Cc1ccc(S(=O)(=O)N2[C@@H](c3ccc(F)cc3)C(C(=O)O)=CC[C@H]2c2ccc(Cl)cc2)cc1	-0.2%	.	4.4	-0.9	0.0	-14.5
11	O=C(Nc1sc2c(c1C(=O)O)CCCC2)c1cccc(Cl)c1	-2.0%	-22.8	-11.6	-5.2	2.0	-4.0
12	Cc1ccc(CN2CCC(Oc3cccc(C(=O)N(C)CCN(C)C)c3)CC2)cc1C	2.7%	-0.2	-2.2	8.3	-0.7	-18.6
13	Cc1ccc(S(=O)(=O)N2CCN(CC(=O)N/N=C/c3ccccc3OCC(=O)O)CC2)cc1	3.0%	8.0	3.4	-1.3	-0.1	-3.2
14	COc1ccccc1NC(=O)Nc1ccc(C(N)=O)cc1	0.1%	.	-11.6	0.7	0.2	-27.0
15	Cc1ccc(C(=O)N2CCCC(CCC(=O)NCc3ccccc3F)C2)cn1 (configuration not stated)	-1.9%	3.5	-0.2	0.1	-0.3	12.6
16	O=C(NC1=NCCS1)C1CCN(S(=O)(=O)c2ccccc2C(F)(F)F)CC1	-0.6%	2.6	3.3	-0.6	0.0	-0.7
17	NC(=O)CN(c1ccc(Oc2ccccc2)cc1)S(=O)(=O)c1ccccc1	13.8%	5.9	-2.4	-4.9	1.2	-14.1
18	CC1CCCC(NC(=S)NC(=O)c2ccco2)C1C (configuration not stated)	8.9%	1.8	-1.1	1.7	1.8	-3.8
19	COC(=O)C1CCCCN1C(=O)c1ccc2oc(Cc3ccccc3)nc2c1 (configuration not stated)	4.6%	-3.3	2.4	1.1	0.6	14.5
20	O=[N+]([O-])c1ccc(S(=O)(=O)Nc2cccc(-c3ccc(N4CCOCC4)nn3)c2)cc1	-1.0%	-2.7	-9.2	3.5	-0.7	?
21	CCc1nc2ccc(C(=O)NCCCn3ccnc3)cn2c1N(C)Cc1cc2ccccc2s1	3.8%	-22.4	-13.7	-1.0	-1.2	-6.0
22	Cc1ccc2sc(=O)[nH]c2c1	-0.1%	7.2	-2.6	-3.4	0.5	-7.0
23	Cn1c(=O)cc(OCC(=O)N2CCC(N3CCCCC3)CC2)c2ccccc21	1.0%	4.6	4.1	-3.7	-0.5	-6.1
24	OCCC1CN(Cc2ccc3nonc3c2)CCN1Cc1ccsc1 (configuration not stated)	-0.4%	-2.2	-2.1	-6.7	1.1	-13.9
25	O=C(COC(=O)c1cc(=O)c2ccccc2o1)Nc1cc(Cl)ccc1Cl	-0.8%	27.0	2.6	0.2	-0.6	-6.5
26	Cc1ccc2nc(C(F)C(F)(F)F)[nH]c2c1 (configuration not stated)	7.3%	0.0	0.6	2.2	2.0	-6.9
27	Cc1cc(C)n(-c2nc(NCC(C)O)c3c4c(sc3n2)CCCC4)n1 (configuration not stated)	-1.5%	-0.9	5.8	-2.7	0.9	-7.8
28	CCN(c1ccccc1)S(=O)(=O)c1ccc(NC(=S)NC(=O)c2cccs2)cc1	-0.2%	-4.3	-10.0	-6.5	-0.5	-42.0
29	Cc1cc(Br)ccc1SCC(=O)Nc1cccnc1	-0.4%	3.6	5.1	0.2	1.1	-4.1
30	COc1ccc(-c2oc3ccc(N4CCOCC4)cc3c2/C=C/c2ccc(OC)c(OC)c2)cc1	2.7%	-28.6	-14.1	-1.1	0.1	-9.0
31	COn1c(-c2ccccc2)nc2ccc(Cl)cc21	-1.2%[38.3 µM]	5.7	5.9	-3.6	0.9	8.7
32	CC1(C)CC2CC(C)(CN2C(=O)COC(=O)c2cccnc2Cl)C1 (configuration not stated)	0.9%	-2.6	-3.0	-2.8	0.8	-0.6
33	Cc1ccc(C)c(NC(=O)COC(=O)c2ccc3c(c2)OCO3)c1	3.4%	3.8	7.4	1.2	-0.5	-1.9
34	Cc1c(NC(=O)COc2cccc(Cl)c2Cl)c(=O)n(-c2ccccc2)n1C	2.4%	-21.2	2.5	-2.3	-0.9	2.8
35	CC(C)(C)c1nnc2sc(SCC(=O)N3CCCc4ccccc43)nn2c1=O	-4.5%	2.7	1.0	-2.6	0.2	-9.2
36	COc1ccc(C(C)=O)cc1COC(=O)C1CC(=O)N(Cc2ccccc2)C1 (configuration not stated)	?	6.6	-1.2	-2.4	0.7	53.8*
37	COc1ccc(S(=O)(=O)N2CCC[C@H]2C(=O)N2CCC[C@H]2C(=O)NCc2ccncc2)cc1C	2.7%	1.7	6.4	.	-0.5	.
38	COC(CNC(=O)[C@H](CSCc1ccccc1)N1Cc2ccccc2C1=O)OC	2.1%	-3.9	-5.0	-21.3	-0.3	4.6
39	COc1ccc2nc(NC(=O)CN3C(=O)NC4(CCCC4)C3=O)sc2c1	1.0%	1.3	-2.2	-3.6	-0.3	-12.3
40	O=C(NCC1CCCO1)c1ccccc1OCc1ccc(F)cc1 (configuration not stated)	1.3%	6.9	-2.7	-2.4	-0.9	24.6
41	COCc1cc(C)nc2oc(C(=O)c3ccccc3)c(N)c12	0.1%	0.3	0.2	0.1	-0.5	-3.2
42	CCOCCCn1c(SCC(=O)Nc2cccc(OC)c2)nc2ccccc2c1=O	3.6%&3.0%	8.7	0.5	1.3	1.3&4.0	4.7
43	CCOc1ccc(C2C(C(=O)O)c3ccccc3C(=O)N2CCN2CCOCC2)cc1 (configuration not stated)	0.5%	3.1	6.2	-0.6	-0.1	6.8
44	COc1ccc(SCC(=O)Nc2ccccc2Cl)cc1	1.0%	11.0	10.0	-0.3	0.3	-9.4
45	CCc1ccccc1N(C(=O)CCC(=O)Nc1cc(C)on1)C(C(=O)NC1CCCC1)c1ccco1 (configuration not stated)	-1.2%	-1.3	-0.8	-3.0	0.1	-9.5
46	CCc1ccccc1NC(=O)Nc1ccon1	-0.6%	-1.1	0.0	6.9	-0.3	-33.1
47	Cc1cc(C)cc(OCC(=O)N/N=C/c2ccc([N+](=O)[O-])o2)c1	?	9.2	-14.0	2.9	-1.8	8.4
48	Cc1ccc(C(C)C)cc1NC(=O)Nc1ccc([N+](=O)[O-])cc1	?	.	-17.1	8.5	0.3	-22.6

# In the list so far, these contain a CF3 group.
cpd	SMILES	PINK1 modulator	CtBP-E1A blk	Six1-Eya2 inh	D2 ag	TRPML1 ag	D2 potentiator
16	O=C(NC1=NCCS1)C1CCN(S(=O)(=O)c2ccccc2C(F)(F)F)CC1	-0.6%	2.6	3.3	-0.6	0.0	-0.7
26	Cc1ccc2nc(C(F)C(F)(F)F)[nH]c2c1 (configuration not stated)	7.3%	0.0	0.6	2.2	2.0	-6.9

# Next section
cpd	SMILES	PINK1 modulator	CtBP-E1A blk	Six1-Eya2 inh	D2 ag	TRPML1 ag	D2 potentiator
49	CC1=CC(=O)C=CC1(C)C(Cl)Cl (configuration not stated)	0.2%	7.5	-1.9	-0.8	-0.3	-5.2
50	COc1ccc(OC)c(C(=O)N2CCC(CCC(=O)NC3CC3)CC2)c1	-0.1%	0.5	?	-6.2	-0.6	-8.0
51	Nc1nc2ccccc2[nH]1	5.2%	-4.2	2.9	-1.7	0.9	-8.9
52	NC(=O)c1ccccc1NC(=S)NC(=O)c1ccc(Br)o1	0.0%	9.4	9.0	-8.2	0.5	-12.5
53	O=C(c1ccc(S(=O)(=O)N2CCOCC2)cc1)N1CCN(c2ccccc2F)CC1	?	5.3	4.0	1.7	0.3	5.6
54	CC1CCCC(n2c(=S)[nH]c3ccccc3c2=O)C1C (configuration not stated)	2.4%[38.3 µM]	-2.7	-1.3	-2.2	-0.2	-18.2
55	CN(Cc1ccccc1)C(=O)[C@@H]1CCCN1S(=O)(=O)c1ccc(Cl)cc1	-0.8%	3.3	-0.2	-5.6	0.3	-8.8
56	COc1ccc(-c2nnc(SCC(=O)NCC3CCCO3)o2)cc1 (configuration not stated)	1.0%	5.2	2.3	6.0	0.3	-2.1
57	O=C(Nc1ncccc1O)c1ccc(OCC2CCCO2)cc1 (configuration not stated)	1.4%	-16.0	-8.0	-3.9	-0.3	-10.2
58	CCCNC(=S)NC1CCCC1	-1.1%[38.3 µM]	6.0	1.5	-3.3	-0.1	-6.8
59	COc1ccccc1CNC(=O)CC(C)c1ccccc1 (configuration not stated)	-0.5%	.	0.0	-6.1	-0.6	0.2
60	Cc1ccc(NS(=O)(=O)c2ccc(NC(=O)C(C)Sc3ccc(Cl)cc3)cc2)c(C)c1 (configuration not stated)	?	0.6	2.3	-2.7	0.7	-1.3
61	Cc1ccc(-c2cc(C(=O)Nc3c(C)n(C)n(-c4ccccc4)c3=O)[nH]n2)c(O)c1C	4.3%	-1.0	-4.0	-1.0	1.5	-10.2
62	O=C1c2ccccc2C(Nc2ccc(S(=O)(=O)N3CCOCC3)cc2)N1c1ccccn1 (configuration not stated)	2.0%	-15.3	-0.1	-7.3	0.4	-9.0
63	COc1ccc(NC(=O)Nc2ccc(Br)cn2)cc1	2.7%	6.3	-3.0	0.8	0.8	-1.1
64	COc1ccc(CCNC(=O)C2CCN(S(=O)(=O)c3cnc[nH]3)CC2)cc1OC	1.5%	-0.2	2.3	-1.9	0.1	-23.6
65	COCCN(CCOC)Cc1c(C)[nH]c2ccccc2c1=O	-0.8%	2.2	0.4	-4.4	-0.3	-2.7
66	O=C(N/N=C/c1cc([N+](=O)[O-])ccc1O)c1cccc(NC(=O)c2cccc(Cl)c2)c1	1.1%	3.6	-2.1	-4.0	0.4	-5.6
67	CCOc1cc(S(=O)(=O)NC2CC(C)(C)NC(C)(C)C2)ccc1Cl	-1.0%	-8.4	-15.3	-3.8	.	-10.6
68	C[C@H](NC(=O)c1nc[nH]c1C(=O)NCCCCCN)C(=O)OCc1ccccc1	-1.4%	1.8	0.3	-2.2	-0.4	0.5
69	Cc1ccc(COC(=O)CCc2nc3ccccc3c(=O)[nH]2)cc1	-1.2%	-11.4	2.4	-2.2	2.1	-10.0
